Beta apoptosis – blocks beta cell apoptosis; INS-1E cytokine-induced death, ATP luminescence, 48 h; percent of positive-control rescue, neutral wells zero; protection from apoptosis, % (concentration not given with the values); 300,000 tested, 0.8% active;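 active = all replicates at 75% or more, or half of them and the mean; inconclusive = half reach 75% but not the mean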;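 note: 0% = cytokine-treated negative control wells and 100% = positive control rescue; higher means more ATP so stronger rescue from cytokine killing; wells of about 40 µL received 100 nL stock; the first replicate is given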
Vif A3G – inhibitors of Vif binding to APOBEC3G peptide, primary screen, biochemical, TR-FRET, GST-Vif 1-94, biotin-A3G peptide, dose response retest (AID 1117319); TR-FRET GST-Vif / biotin-A3G peptide binding; higher % means a stronger effect; test concentration not given here; strong numbers were not always called active; one-dose inhibition, %; IC50 in µM for titrated hits; 260,000 tested, 0.57% active;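 active = above the screen mean plus three standard deviations and confirmed in dose response; inconclusive = results disagree or hit not tested in dose response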;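 note: Vif residues 1-94 fused to GST binding biotinylated APOBEC3G peptide 110-148; 0% = full assay without inhibitor and 100% = GST in place of GST-Vif; retest series ran down from 100 µM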
Calb FLC – C. albicans growth modulation with fluconazole | C. albicans CaCi-2 (fluconazole-resistant clinical isolate) + fluconazole, Alamar Blue growth, 48 h | growth inhibition, % (test concentration not listed) | 300,000 tested, 0.57% active | AID 1979;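 active = most replicates above 75%; inconclusive = exactly half above 75%; inactive = most below 75%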;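 note: all wells also contain fluconazole at 8 µg/ml as a sub-toxic cotreatment; 0% = median of DMSO wells and 100% = median of geldanamycin control wells; wells of about 8 µL received 7.5 nL stock; the first replicate is given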
rRNA inh HTS – inhibits bacterial ribosomal RNA function over humanized ribosomes; 350,000 tested, 1.6% active; E. coli WT GFP vs humanized-ribosome RFP mutants, fluorescence, 24 h; active compounds read low; DMSO median 0, no signal -100; GFP signal change (wild-type ribosome), % (test concentration not listed);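 active = significant combined selectivity score with lowered wild-type GFP, culture density cut under 30%, mutant RFP and density less affected; inactive = any of these conditions unmet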; note: one replicate is shown; some compounds called inactive have numbers as strong as hits
T cruzi inh – blocks replication of Trypanosoma cruzi | T. cruzi beta-gal in NIH3T3, luminescence, 90 h | inhibition, % (no concentration beside the values) | 300,000 tested, 1.4% active;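 active = mean inhibition across valid replicates above about 55%, limit read from the data; inconclusive = mean below that limit but half or more replicates reach it; inactive = mean below it, under half of replicates reach it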;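 note: signal also drops with host cell toxicity which is not excluded here; 0% = plate median of DMSO wells and 100% = zero luminescence signal; higher percent means less beta-gal luminescence so fewer parasites; stock transfer was 50 nL into about 50 µL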
A1 inh – inhibitors of the anti-apoptotic protein A1, read as caspase activation. caspase activation, % (no concentration beside the values). AID 2462. 330,000 tested, 0.066% active. MEF A1-2A-BIM cells, Caspase-Glo 3/7 luminescence, 3 h; percent of clofoctol response, vehicle zero;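 active = over half of replicate activation scores above 10%, or exactly half above 10 with the replicate mean above 10; inconclusive = replicate mean below 10 yet half the replicates above 10; inactive = over half of replicates below 10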;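 note: wells of about 30 µL received 50 nL stock; many hits fall short of the cut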
AF4-AF9 inh – MLL-AF4/AF9 protein interaction inhibition. AlphaScreen, biotin-AF4 peptide binding to FLAG-AF9. inhibition, % at 10 µM. 350,000 tested, 0.47% active;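 active = every replicate reaching a set inhibition limit, whatever the replicate mean, cut at about 25% in these data; inconclusive = mean inhibition reaches that limit but some replicates miss it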;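 note: 0% = plate neutral control median and 100% = total signal loss; the record names both 10 and 1 µM as test concentration; the first replicate is given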
Target sequence (P42568 whole entry, looked up): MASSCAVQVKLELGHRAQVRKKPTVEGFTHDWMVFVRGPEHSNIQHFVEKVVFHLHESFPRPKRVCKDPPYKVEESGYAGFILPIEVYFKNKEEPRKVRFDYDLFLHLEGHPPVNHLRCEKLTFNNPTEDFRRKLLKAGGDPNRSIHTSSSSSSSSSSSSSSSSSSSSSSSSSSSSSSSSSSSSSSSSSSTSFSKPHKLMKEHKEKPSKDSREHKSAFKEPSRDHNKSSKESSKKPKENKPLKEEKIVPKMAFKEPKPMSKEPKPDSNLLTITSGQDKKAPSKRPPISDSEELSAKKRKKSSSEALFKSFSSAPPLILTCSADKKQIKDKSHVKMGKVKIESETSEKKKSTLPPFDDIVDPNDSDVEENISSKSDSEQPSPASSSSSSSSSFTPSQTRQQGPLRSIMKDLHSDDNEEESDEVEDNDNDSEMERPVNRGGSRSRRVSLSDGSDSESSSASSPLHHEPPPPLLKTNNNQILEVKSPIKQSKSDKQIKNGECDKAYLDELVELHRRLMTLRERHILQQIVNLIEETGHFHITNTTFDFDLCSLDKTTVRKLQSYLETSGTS
RanGTP-Impb inh – inhibitors of RanGTP-importin-beta interaction, primary screen, biochemical, FRET, CFP-Ran, YFP-importin-beta, homogeneous; cell-free CFP-Ran/YFP-importin-beta FRET ratio; inhibition, % (test concentration not listed); 300,000 tested, 1.1% active;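 active = most replicates above 15%; inconclusive = exactly half above 15%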;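 note: 0% = DMSO wells and 100% = Ran loaded with GDP instead of GTP; wells of about 40 µL received 100 nL stock; the first replicate is given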
rRNA inh HTS OD600 – recorded beside rRNA inh HTS, whose call it bears; OD600 change, %; measured here: OD600 growth;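 optical density of the mix in the first replicate; 0 = DMSO median and -100 = no signal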
rRNA inh HTS RFP – recorded beside rRNA inh HTS, whose call it bears; RFP signal change, %; measured here: RFP humanized mutant strains;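 first replicate; 0 = DMSO median and -100 = no signal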
Active calls of the source: *; ? = inconclusive; · = not tested or not shown; & = joins results of further samples. This is a subset (hit frequency here may not be typical).

smiles,Beta apoptosis,Vif A3G,Calb FLC,rRNA inh HTS,rRNA inh HTS OD600,rRNA inh HTS RFP,T cruzi inh,A1 inh,AF4-AF9 inh,RanGTP-Impb inh
O=Cc1c(NCc2ccc(F)cc2)c2ccccc2[nH]c1=O,-1,·,-5,-5,-3,-0.1,?,-0.1,-3.6,-0.3
C/C=C\C(=O)Nc1cccc(C2=NOC3(C2)C[C@@H](C(N)=O)N(C(=O)c2ccccc2)C3)c1 (some centres undefined),1,18%,-6,3,7,-1.2,-15,1.5,·,1.4
O=C(Nc1ccccc1)C1=C[C@H](c2ccc(C(F)(F)F)cc2)C[C@H](OCCCCO)O1,1,·,13,-27,-27,3.1,24,-0.5,-2.3&-18,1.9
C=CC(COCc1ccccc1)N(C(=O)OC(C)(C)C)S(=O)(=O)c1ccccc1Br (centres undefined),-4,·,4,2,-3,-3.5,-2,-0.2,-8.8,-3.3
O=C(COC(=O)Cc1ccc(Br)cc1)NCc1ccc(F)cc1,0,2%,12,-2,-2,-0.9,-2,0.0,-1.0,0.4
Cc1ccc(N2C(=O)CN(Cc3ccccc3)C2=S)cc1C,-9,2%,0,-1,0,0.1,4,0.4,-0.6,-1.5
Cc1ccccc1N1CCN(S(=O)(=O)N(C)C)CC1,3,-10%,-18,3,-1,-0.4,-1,0.3,-1.3,-1.2
O=C(Nc1ccccc1N1CCOCC1)C1(c2ccc(Cl)cc2)CCC1,-2,·,11,-29,-24,-13,19,0.9,-1.6,3.1
CC(C)(C)OC(=O)N1CCN(C(=O)Cn2cc(CCO)nn2)CC1,-3,·,9,12,13,7.8,-13,0.4,-1.0,-2.5
CCOC(=O)CCCNC(=O)CN1C(=O)NC(c2ccccc2)(c2ccccc2)C1=O,-3,·,-6,0,1,-0.9,-4,0.2,1.0,3.7
CN1CCC(=NNC(=O)C(=O)NC(C)(C)C)CC1,3,-6%,9,10,8,-1.8,1,1.3,-35,?
CCCCNc1nnc(Cc2ccc(Cl)cc2)c(=O)[nH]1,8,-10%,-4,2,9,0.7,-1,0.1,-2.8,0.8
CCN(CC)S(=O)(=O)c1ccc(C(=O)NC2=NCCS2)cc1,-2,·,4,6,8,0.3,-7,0.0,-5.0,0.0
COc1ccccc1Cn1c(=O)[nH]c2cccnc21,-2,-6%,-1,·,·,·,-12,?,·,-1.9
O=C(NCc1ccc2c(c1)OCO2)C(c1ccco1)N(C(=O)c1csnn1)c1ccccc1 (centres undefined),·,0%&-4%,-18,·,·,·,1,0.6,·,2.9
Cc1ccccc1OCCNC(=O)CNC(=O)c1ccccc1O,-10,5%,-10,-27*,-17*,1.1*,-3,1.1,0.1,2.5
O=C(CCNC(=O)N1CCn2c1nc1ccccc12)NCc1ccc(Cl)cc1,-1,·,5,-2,-5,1.2,4,-0.4,-1.3,2.1
Cc1ccc(C(=O)OC(C)C(=O)NCc2ccc3c(c2)OCO3)cc1S(=O)(=O)N1CCOCC1 (centres undefined),0,·,-3,13,8,2.7,4,-0.8,-0.4,-2.8
O=c1c2ccccc2nc2n1C(CSc1ccccc1)CS2 (centres undefined),2,-3%,16,10,4,0.4,-2,0.0,-2.1,0.2
Cc1cc(C)c(OCC(=O)Nc2nnc(-c3ccco3)o2)c(C)c1,-1,·,7,15,18,0.3,-1,1.1,1.8,-1.5
CCc1cc(/C(Cc2csc(C)n2)=N/O)c(O)cc1O,4,18%,19,·,·,·,-3,-0.5,·,2.8
CC(=O)N1CCc2cc(S(=O)(=O)NC(C(=O)NCc3ccccc3)C(C)C)ccc21 (centres undefined),-2,1%,·,·,·,·,2,-0.7,·,2.1
Cc1ccc(-c2nc3cnccn3c2Nc2ccc3c(c2)OCCO3)o1,1,4%,20,·,·,·,2,-0.8,·,4.3
CSCC[C@H](NC(=O)N1C[C@H]2C[C@@H](C1)c1cccc(=O)n1C2)C(=O)Nc1ccc(NC(C)=O)cc1,4,·,-6,0,13,-9.0,-16,0.8,-9.2,1.8
C=CCn1c(SCC(=O)c2ccc(CNC(C)=O)o2)nc2scc(C3CC3)c2c1=O,3,?,33,·,·,·,5,-1.3,·,1.6
COc1cc(C)c(C)cc1S(=O)(=O)N1CCCc2ccccc21,15,·,7,-28,-44,-17,14,1.0,-0.3,0.0
Cc1cc(/C=N/NC(N)=O)c(C)n1-c1ccc(F)cc1,-3,7%,-32,5,1,0.8,1,-1.1,0.9,-3.0
O=[N+]([O-])c1ccccc1Nc1nc(-c2cccnc2)cs1,·,·,3,0,3,-4.5,19,-0.4,2.9,-1.8
N#CCCN1CCN(CCC#N)CC1,·,-1%,-5,·,·,·,-3,0.9,·,2.1
C=CCn1c(Cc2cccs2)nnc1SCC(=O)NCc1ccco1,7,6%,2,·,·,·,-11,0.0,·,6.2
CC(C)(C)c1ccc(OC(=O)c2cccnc2)cc1,·,·,8,·,·,·,0,1.2,·,1.2
COc1cc(C)c(NC(=O)C(=S)NCCc2ccccc2)cc1C,0,-8%,-5,10,9,5.0,31,-0.3,-6.1,-1.8
CC(C)OCCCNC(=O)CN1C(=O)/C(=C/c2ccccc2)Sc2ccccc21,-4,·,-8,-14,-16,2.6,-18,-0.4,-1.9,-2.1
NC(=O)CCn1nc(-c2ccccc2)c2ccccc2c1=O,-5,?,1,·,·,·,13,-0.1,·,-0.5
COc1ccc(N2CC(C(=O)NC3CCSC3=O)CC2=O)cc1 (centres undefined),-1,·,0,9,18,-1.4,-10,0.6,-9.1,0.1
O=S(=O)(c1cc(F)ccc1F)N1CCN(c2ncccn2)CC1,3,·,36,8,7,0.9,6,-0.5,-3.9,4.3
Cc1cccc(OCC(=O)Nc2cccc3nsnc23)c1,-1,1%,?,·,·,·,-8,-0.4,·,11
Cc1cc(C)c(C)c(S(=O)(=O)N2CCC(C(=O)N3CCCC3)CC2)c1C,-2,·,·,-8,-12,5.3,·,0.5,0.9,·
CCOC(=O)N1CCN(c2c(NCCCN(CC)CC)c(=O)c2=O)CC1,·,-9%,-3,·,·,·,4,-0.4,·,-2.7
N#Cc1c(C(F)(F)F)cc(-c2ccccc2)nc1SCc1nc(N)nc(N2CCOCC2)n1,2,-9%,-8,15,-1,4.1,6,-1.1,·,-68
CC(C)(C)n1nc2c(c1NC(=O)c1cc3ccccc3o1)CS(=O)(=O)C2,-11,-4%,14,21,12,2.6,-2,-0.9,-0.5,-0.5
COc1ccc2[nH]c(=O)c(CN(Cc3nnnn3Cc3ccccc3)CC3CCCO3)cc2c1 (centres undefined),-3,4%,?,·,·,·,-1,0.7,·,-11
CC1=NN(C(=O)c2ccccc2)C(O)(c2ccc(Br)cc2)C1 (centres undefined),13,·,2,9,-6,2.2,4,-0.7,-0.3,24*
COc1ccc(CNC(=O)CS(=O)Cc2nc(-c3ccc(OC)c(OC)c3)oc2C)cc1 (centres undefined),-6,4%,-1,-2,-5,0.9,-14,-0.3,0.2,-2.2
Cc1cccc(NC(=O)C2CCN(C(=O)NC3CCCCC3)CC2)c1,0,·,7,14,7,3.6,17,-0.2,0.1,8.1
CC(C)[C@H](Nc1ccc(S(=O)(=O)N2CCOCC2)cc1[N+](=O)[O-])C(=O)OCC(=O)N(C(C)C)C(C)C,4,?,2,·,·,·,8,-0.3,·,-1.7
COc1ccc(-c2nnc(SCC(=O)Oc3ccc(C)cc3)o2)cc1,-3,-6%,8,·,·,·,-11,-2.9,·,-1.1
O=c1cc(N2CCc3ccccc32)[nH]c(=O)n1-c1ccc(Cl)cc1,-21,4%,·,-2,-8,1.0,-3,-0.4,-0.2,·
CN1CCN(S(=O)(=O)Cc2ccc(Cl)cc2)CC1,-1,87%,2,14,-6,-1.0,15,-0.4,·,-1.7
CC(=O)N(C)c1ccc(NC(=O)/C=C/c2ccccc2Cl)cc1,·,-3%,-7,·,·,·,13,0.0,·,-3.4
COC(=O)c1ccc(CSc2nnc(CS(=O)Cc3ccc(Br)cc3)n2-c2ccccc2)cc1 (centres undefined),34,8%,0,-35,-55,29,17,0.4,3.3,-2.4
CSc1nc(-c2ccc(N(C)C)cc2)c(C#N)c(=O)n1C,·,-20%,0,·,·,·,9,-0.8,-12,17*
Cc1cccc(N2C(=O)C(O)=C(C(=O)c3cccs3)C2c2ccc(C(C)C)cc2)n1 (centres undefined),-4,-13%,56,-23*,-0.1*,0.0*,7,-1.5,0.5,1.6
O=C(NCCc1ccccc1)[C@@H]1CC=C[C@@H]2CCN(Cc3ccccc3)C(=O)[C@@H]21,-11,·,-1,·,·,·,5,1.3,·,-0.1
CS(=O)(=O)N1CCc2cc(C(=O)OCC(=O)c3ccccc3)ccc21,-11,1%&64%,3,·,·,·,-4,-2.5,·,4.8
Cc1ccc(SCCC(=O)NC(C)(C)C)cc1,-2,31%,-12,·,·,·,-7,-1.8,·,-1.6

The results go on.
smiles,Beta apoptosis,Vif A3G,Calb FLC,rRNA inh HTS,rRNA inh HTS OD600,rRNA inh HTS RFP,T cruzi inh,A1 inh,AF4-AF9 inh,RanGTP-Impb inh
COc1ccc(Nc2nnc(SCc3cc([N+](=O)[O-])cc4c3OCOC4)s2)cc1,-4,3%,-21,·,·,·,10,0.4,·,-6.3
Cc1cc(C)cc(NC(=O)N2CCC(c3nc4ccccc4o3)CC2)c1,12,4%,18,·,·,·,-1,-0.7,·,1.8
CCOc1cc(C2Nc3ccccc3C(=O)N2c2ccccc2)ccc1O (centres undefined),-3,25%,0,0,1,-1.2,-12,-0.9,-40,3.1
CCOC(=O)CSc1nc(C2CC2)cc(-c2ccc(F)cc2)c1C#N,-3,4%,3,·,·,·,2,0.6,·,?
COc1ccccc1Oc1ccc(S(=O)(=O)NCc2ccccn2)cc1,17,-6%,?,·,·,·,-18,-0.9,·,0.8
